Source: PubChem (PCMD)
Calb biofilm kill = clotrimazole potentiators killing C. albicans biofilm, primary screen, 4-compound mixtures. 0.02% of 120,000 active. C. albicans biofilm persisters + clotrimazole, fluorescence viability; primary screen in compound mixtures of four per well. inhibition, % at 7.6 µM;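 active = inhibition above 30.3% in the primary screen of four-compound pools, then above 30% when the compound was retested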;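 note: compounds exposed to preformed 24 h biofilms for 48 h; the number belongs to the whole pool; some results filed as inactive read as strong as hits; inactives centre near 12; 0% = biofilm with clotrimazole alone and 100% = kill control; retested singly at about 60 µM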
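Test system: C. albicans biofilms. Buffer or medium: RPMI/MOPS medium, pH 7.0. Timing: 48 h compound exposure at 37 °C. Technique: Alamar Blue fluorescence. Evaluation: percent inhibition of biofilm viability.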
The depositor's hits bear a star. Not all compounds are listed. The share of hits here may be higher or lower than overall.

no.	Structure	Calb biofilm kill
1	COC(=O)c1c(NC(=S)NN2CCN(C)CC2)sc2c1CCC(C)C2 (configuration not stated)	10
2	COc1ccc(Cc2nnc(-c3ccccc3)o2)cc1	13
3	CCN1CCN(Cc2ccc(NC(=O)c3cc(NC(=O)N4CCNC4=O)cc(OC)c3)cc2C(F)(F)F)CC1	13
4	COc1ccc(NC2=CC(=O)N(C)C2=O)cc1	6
5	COc1ccccc1C/C(N)=N/OC(=O)COc1cccc(C)c1	-13
6	O=C(c1cnccn1)N(Cc1cccs1)C1(C(=O)NC2CCCCC2)CCCCC1	8
7	CCNc1nc(NC(C)C)nc(N(C#N)C(C)C(=O)N(CC)CC)n1 (configuration not stated)	8
8	Cc1c(C(=O)NC(=S)Nc2ccccc2N2CCCC2)cccc1[N+](=O)[O-]	9
9	CCOC(=O)c1sc(Nc2ccc(OCC)cc2)nc1C	8
10	O=c1cc(CN2CC(O)Cc3ccc4ccccc4c32)nc2sccn12 (configuration not stated)	22
11	COc1cc(/C=N/n2cnnc2-n2nc(C)cc2C)cc([N+](=O)[O-])c1O	6
12	COc1cc(O)ccc1/C=N/NC(=O)c1ccc([N+](=O)[O-])cc1	4

no.	Structure	Calb biofilm kill
13	O=C(/C=C/c1ccc(Cl)cc1Cl)N1CCc2ccccc21	21
14	COc1ccc(C(=O)C[n+]2ccc3c(c2)nnn3-c2ccccc2)cc1	12
15	CC(C)(C)CN1CCNC(=O)C1CC(=O)NCCc1ccccc1F (configuration not stated)	8
16	Cc1ccc2nc(-c3ccc(NS(=O)(=O)c4c(C)n(C)c(=O)n(C)c4=O)cc3)sc2c1	7
17	CC1CN(CCCOc2ccc([N+](=O)[O-])cc2)CC(C)O1 (configuration not stated)	11
18	COc1cc(NC(=O)CN2CCC(C)CC2)c(C)cc1[N+](=O)[O-]	17
19	C#CC[N+]1(CC#Cc2cccc3ccccc23)CCOCC1	2
20	CC(C)c1nnc(NC(=O)CCC(=O)Nc2ccccc2)s1	22
21	O=Cc1ccc(OCc2ccccn2)cc1	12
22	COc1ccc(Nc2nc3c([nH]2)c(=O)[nH]c(=O)n3C)cc1	10
23	Cc1nc(SCC(N)=O)c(C#N)c(C)c1C	10
24	S=C(NCCN1CCOCC1)Nc1ccc(Nc2ccccc2)cc1	7

Gathered by group, those above containing a halogen.
no.	Structure	Calb biofilm kill
3	CCN1CCN(Cc2ccc(NC(=O)c3cc(NC(=O)N4CCNC4=O)cc(OC)c3)cc2C(F)(F)F)CC1	13
13	O=C(/C=C/c1ccc(Cl)cc1Cl)N1CCc2ccccc21	21
15	CC(C)(C)CN1CCNC(=O)C1CC(=O)NCCc1ccccc1F (configuration not stated)	8

The listing continues:
no.	Structure	Calb biofilm kill
25	CC(=O)c1cc(C#N)c(N2CC(C)OC(C)C2)nc1C (configuration not stated)	-23
26	CC(c1ccccc1)N1C(=O)/C(=C/c2ccncc2)SC1=S (configuration not stated)	27
27	COc1ccc(CCNC(=S)NC(=O)c2cccc(Cl)c2)cc1OC	24
28	CCOC(=O)c1c(-c2ccccc2)csc1NC(=O)C(C)NCc1ccco1 (configuration not stated)	5
29	CCOC(=O)C1CCN(CCC(=O)Nc2ccc(F)cc2)CC1	7
30	COc1cccc(-c2cc(C(=O)NN3CCOCC3)c3ccccc3n2)c1	11
31	O=C(COC(=O)Cc1ccc(Br)cc1)NCC1CCCCC1	7
32	O=C(O)CNS(=O)(=O)c1c(Cl)cccc1Cl	14
33	CC(=O)c1cc(F)c(N2CCN(C(=O)COc3ccc(F)cc3)CC2)cc1C	6
34	COC(=O)c1ccc(S(=O)(=O)NCc2ccccc2)n1C	0
35	O=c1c2ccccc2nc(/C=C/c2ccc3c(c2)OCO3)n1CCCO	-6
36	N=C1C(c2ccccc2)=C(O)CN1c1cccc(S(=O)(=O)N2CCCCC2)c1	17

no.	Structure	Calb biofilm kill
37	O=C1C2C3C=CC(C4CC34)C2C(=O)N1/N=C/c1ccc([N+](=O)[O-])o1 (configuration not stated)	9
38	CCOc1cc(CNn2c(C)nnc2SCC(=O)NC(C)(C)C)ccc1OCC(=O)NC(C)(C)C	23
39	CN1CCN(c2ccc(S(=O)(=O)N3CCCCC3)cc2NC(=O)c2ccc3ccccc3c2)CC1	14
40	Nc1ccc(N2CCOCC2)cc1C(F)(F)F	-1
41	Cc1cc(=O)n2c(sc3ccccc32)c1C#N	16
42	COc1cccc(/C=N\NC(=O)C2=NNC(=O)C2C)c1O (configuration not stated)	17
43	COC(=O)C1=C(C)NC(=O)C1(NC(=O)c1ccncc1)C(F)(F)F (configuration not stated)	19
44	c1ccc(C[n+]2cccc(-c3ccccc3)c2)cc1	13
45	COc1cccc(NC(=O)COc2cccc(-n3cnnn3)c2)c1	4
46	CC1=CC(=O)C(C(C)C)=C/C1=N/OS(=O)(=O)c1ccccc1	15
47	COc1ccc(Cc2nnc(SCC(=O)N3CCCC3)o2)cc1	23
48	COC(=O)c1cc(Cl)c(NC(=O)Cc2ccccc2)cc1OC	14

no.	Structure	Calb biofilm kill
49	O=[N+]([O-])c1cccc(-c2cnc3ccccc3n2)c1	21
50	CCN(CC)c1ncnc2c1ncn2Cc1c(Cl)cccc1Cl	7
51	O=C(COC(=O)c1cc(S(=O)(=O)N2CCCCC2)ccc1Cl)NCc1ccco1	7
52	O=C(Nc1cccc(Cl)c1)c1cc(S(=O)(=O)NCCc2ccc(Cl)cc2)ccc1F	3
53	c1cc(C2CCN(Cc3nc(-c4ccc5c(c4)OCO5)no3)CC2)ccn1	13
54	Cc1nc(CNC(=O)c2ccccc2OC2CCN(S(C)(=O)=O)CC2)cs1	17
55	COc1ccc(NC2(c3ccccc3)OC(=O)c3ccccc32)cc1 (configuration not stated)	11
56	COc1ccc(CNC(=O)C(c2cccs2)N(Cc2ccco2)C(=O)Cc2cccs2)cc1 (configuration not stated)	9
57	O=C(O)C1Cc2ccccc2CN1S(=O)(=O)c1ccc(Cl)cc1 (configuration not stated)	-4
58	O=C(O)c1cc(O)c2c(c1)C(=O)c1cccc(O)c1C2=O	13
59	CCSc1nc2ccccc2n1C(=O)/C=C/c1ccc(OC)c(OC)c1	7
60	CC(=O)N=c1c(C#N)cc2c(=O)n3ccccc3nc2n1Cc1ccccc1	14

no.	Structure	Calb biofilm kill
61	CCOP(=O)(c1ccc(N(C)C)cc1)C(O)c1cccnc1 (configuration not stated)	16
62	CCCCCC(=O)Oc1cccc(N2C(=O)C3CCCCC3C2=O)c1 (configuration not stated)	19
63	O=C(NC1CCCc2ccccc21)c1ccccc1 (configuration not stated)	19
64	O=C(OCC(=O)N1c2ccccc2Sc2ccccc21)c1cccnc1	15
65	CN(C)CCN=Cc1c(O)n(Cc2ccc3c(c2)OCO3)c(=O)c2ccccc12	6
66	Cc1c(Cl)cccc1NC(=S)Nc1ccccn1	19
67	CCCNC(=O)Nc1ccsc1C(=O)OC	1
68	O=C(Nc1ccc2c(c1)OCCO2)c1ccc(Br)s1	11
69	Cc1ccc(N2C(=O)C(Cl)=C(N3CCN(C)CC3)C2=O)c(C)c1	11
70	COc1ccc(CCNC(=O)C2CC3Cn4c(nc5cc(C)c(C)cc54)C3N2C)cc1 (configuration not stated)	15
71	O=Cc1ccc(-n2cncn2)cc1	14
72	CCN(CC)C(=O)CSc1nnc(-c2cc(-c3ccc(Cl)cc3)nc3ccccc23)o1	5

Entries above containing a tert-butyl group, in the order listed:
no.	Structure	Calb biofilm kill
15	CC(C)(C)CN1CCNC(=O)C1CC(=O)NCCc1ccccc1F (configuration not stated)	8
38	CCOc1cc(CNn2c(C)nnc2SCC(=O)NC(C)(C)C)ccc1OCC(=O)NC(C)(C)C	23

(further entries)
no.	Structure	Calb biofilm kill
73	CS(=O)(=O)N(CC(=O)NCc1ccccc1Cl)C1CCCCC1	3
74	COc1cc(COCC(O)CN2CCN(Cc3ccccc3)CC2)cc(OC)c1OC (configuration not stated)	4
75	Cc1sc2ncnc(Sc3nnc4sc5ccccc5n34)c2c1C	8
76	CC(C)c1ccccc1NC(=O)COC(=O)CNC(=O)c1ccc(Br)cc1	-6
77	COc1cccc(/C=C2\Sc3ccc(C(=O)NCc4cccnc4)cc3N(C)C2=O)c1	1
78	CCOC(=O)C1(Cc2ccccc2)CCN(Cc2cccn2-c2cccnc2)CC1	22
79	CC(=O)SC1CC(=O)N(c2c(C)cccc2C)C1=O (configuration not stated)	10
80	O=C(CC1NCCc2ccccc21)Nc1ccccc1Cl (configuration not stated)	17
81	c1ccc(-n2nnnc2CN2CCOCC2)cc1	3
82	O=C(O)CCNC(=S)Nc1cccc(F)c1	8
83	COC1CCCN(C(=O)c2ccc(OC3CCN(CCc4ccccc4)CC3)cc2)C1 (configuration not stated)	-6
84	COc1ccc(CCNC(=O)C(NC(=O)OCc2ccccc2)C(C)C)cc1OC (configuration not stated)	20

Records 80–83 from above:
no.	Structure	Calb biofilm kill
80	O=C(CC1NCCc2ccccc21)Nc1ccccc1Cl (configuration not stated)	17
81	c1ccc(-n2nnnc2CN2CCOCC2)cc1	3
82	O=C(O)CCNC(=S)Nc1cccc(F)c1	8
83	COC1CCCN(C(=O)c2ccc(OC3CCN(CCc4ccccc4)CC3)cc2)C1 (configuration not stated)	-6

Following part:
no.	Structure	Calb biofilm kill
85	COC(=O)c1ccc(COC(=O)CNC(=O)c2ccc(-c3ccccc3)cc2)cc1	13
86	CCN(CC)CCOC(=O)c1ccc(N/C=C(/C#N)c2nc(-c3ccc(OC)c(OC)c3)cs2)cc1	18
87	C/C(=N\NC(N)=O)c1ccccc1	-5
88	Cc1ccc2c(c1)c1nnc(SCC(=O)Nc3ccccc3C(F)(F)F)nc1n2CC(=O)O	17
89	Cc1ccc(/C=C(\NC(=O)c2ccccc2)C(=O)OCc2ccccc2)cc1	16
90	COC(=O)c1[nH]c2ccc(F)cc2c1NS(=O)(=O)c1ccc(OC)cc1	12
91	Cc1nc(C)n(CC(=O)N2CCCC(C(=O)c3ccc(C(F)(F)F)cc3)C2)n1 (configuration not stated)	1
92	COc1ccc(Cl)cc1N(CC(=O)NCC(C)C)S(=O)(=O)c1ccc(C)c([N+](=O)[O-])c1	16
93	C/C(=N/NC(=O)CN1CCN(S(=O)(=O)c2ccc(Br)cc2)CC1)c1ccncc1	35
94	Cc1ccc(N=CC=C2OC(C)(C)C(C)(C)O2)c(C)c1	16
95	O=C(O)CCCN1C(=O)C2C3CC(C2C1=O)C1C(c2ccccc2)c2sc(=O)[nH]c2SC31 (configuration not stated)	7
96	CCOC(=O)Cn1c(=O)c(C#N)cn(C(C)C)c1=O	26

no.	Structure	Calb biofilm kill
97	CC1CCCN(S(=O)(=O)c2ccc(C(=O)Nc3nnc(-c4ccncc4)o3)cc2)C1 (configuration not stated)	9
98	O=C(N[C@H](C(=O)O)c1ccccc1)C1CCC(Cn2cnc3ccccc3c2=O)CC1 (some centres not stated)	27
99	COC(=O)c1ccc(-n2c(C)cc(C(=O)CSc3ccc(NC(C)=O)cc3)c2C)cc1	12
100	CCOC(=O)c1c(/N=C/c2cc(C)ccc2O)sc2c1CCN(C)C2	19
101	CCCCNC(=O)CSc1nc2ccc(Nc3nc(N4CCOCC4)nc(N4CCOCC4)n3)cc2s1	5
102	Cc1cccc(NC(=O)Cn2c(=O)n(Cc3ccccc3)c(=O)c3c(C)c(C)sc32)c1	6
103	CCCCc1ccc(-c2csc(/C(C#N)=C/c3ccco3)n2)cc1	12
104	CC(C)c1ccc(NC(=O)NC2CC3CCC(C2)N3Cc2cccs2)cc1 (configuration not stated)	12
105	COc1ccc(C2=NOC(COc3ccc([N+](=O)[O-])cc3)C2)cc1 (configuration not stated)	15
106	Cc1c(Cl)cccc1NC(=O)COC(=O)CCc1nc2ccccc2n1-c1ccccc1	13
107	CC(=O)Nc1nc2ccccc2n1Cc1ccc(Cl)cc1	10
108	Cc1nn2cc(-c3cccc(Cl)c3)cnc2c1Cl	18

no.	Structure	Calb biofilm kill
109	COc1ccccc1NC(=O)c1ccccc1NS(=O)(=O)c1cccs1	-2
110	Cc1cc(CNC(=O)c2ccc(C)c([N+](=O)[O-])c2)c2ccccc2n1	13
111	CC(Cc1c[nH]c2ccccc12)C(=O)O (configuration not stated)	23
112	COCc1c(Br)c(C)nc(OCC(=O)N/N=C/c2cc(C)n(-c3ccc([N+](=O)[O-])cc3)c2C)c1C#N	19
113	COc1cc(/C=N/NC(=O)c2ccc(Cn3cc([N+](=O)[O-])cn3)o2)cc(Br)c1O	23
114	CCOC(=O)c1c(CN2CCC(C)CC2)n(C)c2cc(Br)c(OC)cc12	27
115	COc1cccc(C(=O)NCC(=O)OCc2ccc(F)cc2Cl)c1	7
116	COC(=O)c1ccc(/C=N/N2C(C)CCCC2C)cc1 (configuration not stated)	11
117	CCCC(=O)N1CCN(c2ccc(NC(=S)NC(=O)c3cccc(C)c3)cc2)CC1	9
118	Cc1cc2nnc(SCC(=O)N(C)C3CCS(=O)(=O)C3)n2c2ccccc12 (configuration not stated)	8
119	CC(C)CCC1(CCNC(=O)c2cccs2)CCOC(C)(C)C1 (configuration not stated)	23
120	CCOC(=O)C(=O)Nc1nc(-c2ccccc2)c(-c2ccccc2)o1	14

The closing two records of the part above are carried over, then new ones follow.
no.	Structure	Calb biofilm kill
119	CC(C)CCC1(CCNC(=O)c2cccs2)CCOC(C)(C)C1 (configuration not stated)	23
120	CCOC(=O)C(=O)Nc1nc(-c2ccccc2)c(-c2ccccc2)o1	14
121	CN(c1ccccc1)S(=O)(=O)c1cccc(NC(=O)C2CC(=O)N(Cc3ccccc3)C2)c1 (configuration not stated)	12
122	CCOC(=O)C1CCCN(C(=O)Nc2c(-c3ccccc3)noc2C)C1 (configuration not stated)	16
123	CCCCCCC#Cc1ccc2c(c1)COc1c3ccccc3nn1-2	12
124	COc1ccc(N2CC(C)Cn3c2nc2c3c(=O)n(Cc3ccccc3)c(=O)n2C)c(OC)c1 (configuration not stated)	12
125	N#Cc1cc(C(=O)c2ccccc2O)cn(-c2nccs2)c1=O	19
126	N#CCC(=O)N/N=C/c1coc2ccccc2c1=O	19
127	Cc1nnc(SCC(=O)N(CC(C)C)c2c(N)n(CC(C)C)c(=O)[nH]c2=O)n1-c1ccccc1	15
